# Rce1 inh: yeast Rce1p protease inhibitors, primary screen, biochemical, fluorescence, cell-free homogeneous. CAAX prenyl protease 2 (Saccharomyces cerevisiae (strain ATCC 204508 / S288c)), Q03530. calls only. yeast membranes, quenched prenylated peptide cleavage fluorescence. hit rate 0.27% among 290,000;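 active = fall in fluorescence gain of 50% or more versus controls, with final raw signal at or below 3038400; inconclusive = same 50% fall but final raw signal above 3038400; inactive = fall in fluorescence gain under 50%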;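 note: plate controls were neutral control wells for no effect and wells lacking membranes for full effect; tested at 10 µM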
# eIF4H inh: human eIF4H binding inhibitors, primary screen, translation initiation inhibitor project, biochemical, uHTS, fluorescence polarization; inhibition, % at 35 µM; AID 2012, 2009; hit rate 0.94% among 290,000; eIF4H fluorescence polarization binding assay;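 active = 50% or more with normal probe brightness, or confirmed in later tests; inconclusive = above 50% with abnormal brightness, or retests that disagree; inactive = below 50% or failed in later tests; about a fifth of its hits are not listed in these tables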;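 note: calls also rest on retests at 20 µM and on dose response follow-up; 0% = protein and probe with vehicle and 100% = probe without protein; strong numbers were not always called active; many hits fall short of the cut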
# Yeast UUG start: modulators of yeast start codon fidelity, primary screen, whole organism, S. cerevisiae, single point, plate reader; S. cerevisiae UUG-firefly luciferase reporter, luminescence/redox ratio; activity score, % at 18.7 µM; hit rate 0.13% among 350,000; AID 602363, 2012;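 active = replicate mean at a twofold rise or more, about +100% in these data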;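 note: firefly luciferase made from a UUG start codon reports start codon fidelity; reporter light over untreated wells divided by growth signal over untreated wells; some hits fall short of that in this replicate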
# CSC inhib: cancer stem cell viability inhibitors, primary screen, luminescence. cancer stem cell-like cells viability. inhibition, % at 7.5 µM. hit rate 1.1% among 300,000. AID 2717, 2010;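 active = mean at 75% or more and at least half the replicates too; inconclusive = mean and replicates disagree; tested in HMLE shEcad cells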;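 note: 0% = median of negative and 100% = median of positive control wells; the first replicate is given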
# MT1-MMP act inh: blockers of MT1-MMP proenzyme processing, primary screen, HT1080 RFP-PRO-GFP cells, GFP/RFP fluorescence; Matrix metalloproteinase-14 (Homo sapiens), P50281; GFP/RFP ratio fluorescence, overnight; percent of plate control window, DMSO zero; GFP/RFP ratio change, % at 20 µM; hit rate 0.061% among 360,000; AID 651647, 2012;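 active = GFP/RFP ratio change of at least 30% with cell ATP level not reduced by more than half and red fluorescence within 50% of control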; note: strong numbers were not always called active
#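 Assay system – RFP-PRO-GFP reporter HT1080 cells · Compound dosing – single dose of 20 µM compound, 1% DMSO final · Incubation – overnight compound exposure at 37 °C · Measure – GFP/RFP fluorescence ratio · Benchmarks – DMSO wells and RFP-L50D-GFP cells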
# PABP FP inh: PABP poly(A) RNA binding inhibitors, primary screen, biochemical, fluorescence polarization, uHTS; hit rate 1% among 290,000; inhibition, % at 35 µM; AID 2014, 2009;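 active = 50% or more with normal probe brightness, or confirmed in later tests; inconclusive = above 50% with abnormal brightness, or retests that disagree; inactive = below 50% or failed in later tests; about a fifth of its hits are not listed in these tables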;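 note: calls also rest on retests at 20 µM and on dose response follow-up; controls were probe without protein and protein plus probe with vehicle; some compounds called inactive have numbers as strong as hits; many hits fall short of the cut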
# Target sequence (P11940 whole entry, looked up): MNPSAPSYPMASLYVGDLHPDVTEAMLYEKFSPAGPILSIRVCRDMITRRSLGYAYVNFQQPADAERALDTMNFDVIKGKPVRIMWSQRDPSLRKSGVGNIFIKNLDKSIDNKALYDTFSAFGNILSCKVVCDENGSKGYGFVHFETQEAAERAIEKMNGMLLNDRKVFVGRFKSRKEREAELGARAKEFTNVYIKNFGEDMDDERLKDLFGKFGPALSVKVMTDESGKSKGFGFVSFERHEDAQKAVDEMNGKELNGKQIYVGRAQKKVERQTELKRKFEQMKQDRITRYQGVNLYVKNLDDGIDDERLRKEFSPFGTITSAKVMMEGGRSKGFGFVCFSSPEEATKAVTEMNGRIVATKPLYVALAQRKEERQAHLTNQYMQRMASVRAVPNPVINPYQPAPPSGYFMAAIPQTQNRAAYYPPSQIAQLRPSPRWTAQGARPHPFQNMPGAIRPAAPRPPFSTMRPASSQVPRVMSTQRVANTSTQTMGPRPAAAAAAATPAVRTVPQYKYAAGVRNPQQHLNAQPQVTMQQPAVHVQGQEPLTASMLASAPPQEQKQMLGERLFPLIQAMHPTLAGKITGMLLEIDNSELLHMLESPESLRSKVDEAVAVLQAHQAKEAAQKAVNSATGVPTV
# HIV Env fusion: inhibitors of HIV-1 Env-driven cell-cell fusion, primary screen, HeLa-JRFL effector, CEM21 target cells, luciferase. inhibition, % at 12.3 µM. hit rate 1.1% among 360,000;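 active = mean replicate inhibition score of at least 50 and every replicate individually at or above 50; inconclusive = only one of the two criteria met; inactive = mean below 50 and not all replicates reaching 50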;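 note: 0% = plate neutral controls and 100% = maraviroc near 300 nM; one replicate is shown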
# eIF4H inh retest: further read-out of eIF4H inh, marked with its call; inhibition, %; compound at 20 µM; confirmation average;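 mean of two retest wells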
# PABP FP inh retest: further read-out of PABP FP inh, marked with its call; inhibition, %; compound at 20 µM; confirmation repeats;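 mean of two retest wells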
# MT1-MMP act inh RFP: also measured in MT1-MMP act inh; calls as there; RFP signal change, %; measured here: RFP expression control read;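 0 = vehicle wells; hits needed this value within 50% of zero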
# * marks the source's active call; other numbers are inactive results; i = inactive; u = inconclusive; x = not tested or not shown; + = active, no number.
SMILES,Rce1 inh,eIF4H inh,Yeast UUG start,CSC inhib,MT1-MMP act inh,MT1-MMP act inh RFP,PABP FP inh,HIV Env fusion,others
CCOC(=O)c1[nH]c2ccccc2c1NC(=O)C(C)(C)C,i,0,0,-11,2,5,-1,9,
O=C(CSc1ccc(S(=O)(=O)N2CCOCC2)cn1)Nc1ccc(OC(F)F)cc1,x,x,-17,0,5,-12,x,4,
COc1cccc(N2CC(C(=O)Nc3nnc(SCC(=O)N4CCOCC4)s3)CC2=O)c1 (stereo not given),i,4,-6,-35,4,7,-1,-7,
COc1ccc(S(=O)(=O)N2CCNC(=O)C2)cc1Br,i,0,-4,-14,-1,2,12,-4,
O=C1C=C(C#Cc2ccc(Oc3ccccc3)cc2)C[C@@H](c2ccc(F)cc2)C1,x,x,-18,x,-6,-3,x,26,
O=C(OCC(=O)c1ccc(Cl)s1)c1ccc(CO)cc1,i,x,-9,-1,0,0,x,5,
CCc1ccc2c(c1)c1nnc(NN)nc1n2C,i,-8,-21,-1,4,6,1,4,
CCn1c(CNC(=O)c2cccc(C)c2)nnc1SCC(=O)NC1CCCC1,i,-17,x,-24,2,4,-10,-5,
CN(CCO)C(=O)CCC(=O)Nc1ccc(S(N)(=O)=O)cc1,i,8,-21,-14,-6,-2,2,x,
COc1ccccc1NC(=O)C(C)OC(=O)Cc1n[nH]c(=O)c2ccccc12 (stereo not given),i,x,-8,-6,2,6,x,-6,
COc1ccc(OCc2nnc(SCC(=O)N3CCOCC3)o2)cc1,i,-2,x,-10,0,0,-5,-23,
CC(=O)c1ccc(NC(=O)c2noc(C)c2[N+](=O)[O-])cc1,i,-7,-11,-6,-1,2,12,-19,
COc1cccc(-c2cc(C(=O)N3CCN(C(=O)c4ccco4)CC3)[nH]n2)c1,i,-2,-37,-14,-3,-1,3,-13,
Cc1c(C(=O)N2CCOCC2)c(S(=O)(=O)Nc2cccc(Br)c2)c(C)n1C,i,-3,-5,4,-4,-1,8,4,
CC(C)C(=O)O/N=C1\CCS(=O)(=O)c2sccc21,i,-2,x,-4,-3,0,-3,7,
CCOc1ccc(S(=O)(=O)NCCC(=O)N(CC)CC(=O)Nc2c(F)cccc2F)cc1,i,x,-9,-5,-2,2,x,5,
Cc1ccc(NC(=O)c2ccc(Cl)c(S(=O)(=O)NCc3ccco3)c2)c(O)c1,x,x,-8,x,2,-1,x,-21,
CCN(CC(=O)Nc1ccccc1C(F)(F)F)C(=O)CN1C(=O)NC2(CCCCC2)C1=O,i,x,-3,1,1,-1,x,0,
O=C(c1ccccc1F)N1CCN(c2ccccc2)CC1,i,8,2,x,-2,-2,-10,7,
CC(C)C[C@@H](CNCC(=O)[C@H](CC(C)C)NC(=O)c1[nH]cnc1C(=O)N[C@H](CN)CC(C)C)NC(=O)c1nc[nH]c1C(=O)N[C@@H](Cc1ccccc1)C(=O)O,x,x,3,x,5,3,x,18,
O=C(Nc1cccnc1Cl)c1cc(-c2ccc(O)cc2)on1,i,9,-18,-5,-1,-1,-2,-12,
NC(=NCCc1ccccc1)NS(=O)(=O)c1ccccc1,i,-3,-33,-16,-9,-2,4,14,
COC(=O)[C@]1(Cc2ccccc2)N[C@H](CN(C)C(=O)Nc2ccc(OC)cc2)[C@@H]2C(=O)N(C)C(=O)[C@@H]21,x,x,-17,x,3,7,x,-20,
CCC(=O)c1ccc(OCC(O)CN2CCOCC2)cc1 (stereo not given),i,-19,-15,-4,1,3,1,x,
COC(=O)c1ccccc1NC(=O)CSc1nnc(-c2cccnc2)o1,i,-3,-3,18,-4,1,5,-106,

# Brought forward from above: three entries; new compounds follow.
SMILES,Rce1 inh,eIF4H inh,Yeast UUG start,CSC inhib,MT1-MMP act inh,MT1-MMP act inh RFP,PABP FP inh,HIV Env fusion,others
COC(=O)[C@]1(Cc2ccccc2)N[C@H](CN(C)C(=O)Nc2ccc(OC)cc2)[C@@H]2C(=O)N(C)C(=O)[C@@H]21,x,x,-17,x,3,7,x,-20,
CCC(=O)c1ccc(OCC(O)CN2CCOCC2)cc1 (stereo not given),i,-19,-15,-4,1,3,1,x,
COC(=O)c1ccccc1NC(=O)CSc1nnc(-c2cccnc2)o1,i,-3,-3,18,-4,1,5,-106,
CN(C)CCCN(C(=O)c1ccc(C(=O)c2ccccc2)cc1)c1nc2cc3c(cc2s1)OCCO3,i,19,5,-29,-4,-4,52,0,eIF4H inh retest=3;PABP FP inh retest=29
COC(=O)c1ccc(NS(=O)(=O)c2cc3c4c(c2)CCN4C(=O)CC3)cc1,i,x,-1,-4,3,-1,x,11,
CCN(CC)S(=O)(=O)c1ccc(Cl)c(NC(=O)COC(=O)c2c(C)noc2C)c1,i,6,x,-6,2,-13,-7,10,
CC(C)CC(=O)NC(=S)Nc1ccc(S(=O)(=O)Nc2nccs2)cc1,+,1,x,-19,-3,-2,-6,9,
O=C(COC(=O)C1CC1)Nc1ccc2c(c1)OCO2,i,-23,x,-12,-3,0,-2,-6,
CCOC(=O)C1(Cc2cccc(Cl)c2)CCCN(C(=O)c2cccc(C)n2)C1 (stereo not given),i,-1,x,-7,-6,-7,-1,22,
O=C(NNC(=O)c1ccccc1F)c1ccc(-c2ccccc2Cl)o1,x,x,-16,x,-3,1,x,-22,
CC(=O)CCn1c(=O)n(CCC(C)=O)c(=O)n(CCC(C)=O)c1=O,x,3,-24,20,-3,5,-5,x,
CCNC(=O)CCn1nc(-c2ccc(Cl)cc2)c2ccccc2c1=O,i,-1,0,x,1,-5,-6,-52,
C=C1C(C(=O)Nc2ccc(OCC)cc2)C1C(=O)Nc1ccc(OCC)cc1 (stereo not given),i,11,1,0,-2,-4,4,0,
CC(=O)Nc1cccc(-c2ccnc3c2CC(C(=O)NCc2cccnc2)O3)c1 (stereo not given),x,x,-26,x,2,3,x,4,
COC(=O)c1c(N)n(-c2ccc(NC(C)=O)cc2)c2nc3ccccc3nc12,i,1,-13,7,-11,2,-2,x,
CC12COC3(C(=O)Nc4ccc([N+](=O)[O-])cc4)CC1CCC32C (stereo not given),i,7,-23,9,5,-3,5,x,
O=C(O)CC1c2ccccc2CCN1S(=O)(=O)c1cccs1 (stereo not given),i,x,-11,-3,-2,2,x,4,
Cc1cccc(NC(=O)NNC(=O)c2cc(-c3ccccc3Cl)nc3ccccc23)c1,i,-12,5,22,9,-7,4,x,
NC1=NC(=O)/C(=C/c2cccc(-c3ccc(S(N)(=O)=O)cc3)c2)S1,i,90*,-17,4,2,4,36*,x,eIF4H inh retest=93*;PABP FP inh retest=75*
CC(=O)N1CCN(c2nc3ccc([N+](=O)[O-])cc3s2)CC1,i,-3,-19,0,4,1,1,-9,
CCN(CC)C(=O)C1=C(C)N(Cc2ccc(C(C)(C)C)cc2)C(=O)C(CC(=O)NCCCCc2ccccc2)C1 (stereo not given),x,x,18,x,-14,-18,x,-2,
Cc1nnc(SCCn2c(Br)nc3c2c(=O)[nH]c(=O)n3C)s1,i,-3,x,2,-1,7,1,x,
O=C(CC1C(=O)NCCN1C/C=C/c1ccccc1)NCCc1ccncc1 (stereo not given),i,-3,-9,-8,-3,1,-11,3,
O=C(CNC(=S)NC(=O)c1ccco1)c1ccccc1,i,7,-26,-18,-1,0,8,x,
CCC(C)(C)n1nnnc1C(c1cccnc1)N1CCN(c2cccc(C(F)(F)F)c2)CC1 (stereo not given),i,-8,-8,-11,-8,-14,-14,-6,
COc1ccc(OC)c(C2C(C#N)=C(N)Oc3cc(C)[nH]c(=O)c32)c1 (stereo not given),i,6,-9,-5,1,3,7,x,
O=C(c1ccc(S(=O)(=O)N2CCCCCC2)cc1)N(c1ccccn1)C1CCCCC1,i,55,27,11,-3,-7,-13,5,eIF4H inh retest=6;PABP FP inh retest=22
COc1ccc(C2(C)NC(=O)N(CC(=O)Nc3ccc4c(c3)OCO4)C2=O)cc1OC (stereo not given),i,13,x,-8,4,6,0,x,
SMILES,Rce1 inh,eIF4H inh,Yeast UUG start,CSC inhib,MT1-MMP act inh,MT1-MMP act inh RFP,PABP FP inh,HIV Env fusion,others
COc1ccc2c(-c3cccnc3)cc(=O)[nH]c2c1,i,-4,-4,3,2,-2,12,-46,
CCCCN(CCCC)CCNC(=O)CN1C(=O)COc2ccc(S(=O)(=O)N3CCC(C)CC3)cc21,i,2,-3,-5,-2,-1,-4,14,
O=C(NCc1ccc2c(c1)OCO2)C1CC(c2ccc(Cl)cc2)=NO1 (stereo not given),i,-6,-15,-12,0,-1,-3,x,
O=C(Nc1ccc(NC(=O)c2ccc(Cl)cc2Cl)cc1)c1cccs1,i,-6,-16,2,-1,4,21,1,
Cc1ccc(C(=O)N(CC(=O)NC2CCCCC2)c2ccccc2F)s1,i,-5,-12,-9,1,4,3,26,
COc1cc2c(cc1NC(=O)CCC(=O)O)oc1ccccc12,i,0,-10,-14,-2,3,11,-3,
COc1cc2c(cc1NC(=O)Cc1ccc(C)cc1)oc1ccccc12,i,-8,x,10,-3,-7,-15,-15,
COc1ccc(OC)c(NC(=O)CSc2nc3ccccc3c(=O)n2CC2CCCO2)c1 (stereo not given),i,-4,x,5,-2,4,2,1,
Cc1ccc2[nH]c3c(c2c1)CCC3=O,i,-12,-11,3,4,4,-12,x,
CCOC(=O)C1CCCN(C(=S)Nc2cccc(Cl)c2)C1 (stereo not given),i,-10,x,-1,0,6,43,x,
CCOc1cc(C2Nc3ccccc3NC3=C2C(=O)CC(C)(C)C3)ccc1O (stereo not given),i,u,-13,-18,-2,-3,u,-1,
CN(CC(=O)NCCc1ccc(S(N)(=O)=O)cc1)CC(=O)Nc1ccc(Cl)c(C(F)(F)F)c1,x,x,-11,x,1,-20,x,93*,
O=C(CCC(=O)N1CCOc2ccccc21)Nc1ccccc1Br,i,4,-15,7,2,8,-10,13,
CCN(c1ccccc1)S(=O)(=O)c1cc(C(=O)O)ccc1C,i,53*,-27,-2,5,2,26*,-236,eIF4H inh retest=96*;PABP FP inh retest=91*
CCOc1ccccc1NC(=O)/C(C#N)=C/c1c(C)nn(-c2ccc(F)cc2)c1Cl,i,-7,x,9,0,-4,0,-76,
CCC(C)[C@H](NC(=O)NCc1ccco1)C(=O)O (stereo not given in full),i,3,-1,-11,1,2,5,x,
O=C(COC(=O)c1cc(Br)ccc1Cl)NC1CCCC1,i,-14,x,2,2,2,4,4,
OC(c1ccc(F)cc1)c1ncc(-c2ccccc2F)[nH]1 (stereo not given),x,x,-16,x,0,1,x,12,
COCCn1c(SCC(=O)Nc2ccc(F)cc2)nc2c(c1=O)SCC2,x,x,-35,x,-1,-1,x,-21,
Cc1ncoc1C(=O)NC1CC(C)(C)Cc2c1cnn2-c1ccccc1 (stereo not given),i,-1,-16,3,-4,1,-10,1,
O=C(CSc1ccc(-c2cccs2)nn1)N1CCCCC1,i,2,11,0,1,2,-2,x,
CC(=O)Cc1nsc(NC(=O)c2ccc(-c3ccc(Cl)c(Cl)c3)o2)n1,i,-10,-20,37,8,-7,4,13,
S=C(NCc1cccs1)Nc1cccc(Cl)c1Cl,i,-11,-22,-5,-1,-13,24,x,

# Source: PubChem
